# H5N1 antiviral = MDCK cell protection from H5N1 avian flu; cytopathic effect, luminescence, 72 h; active compounds read high; no value below 0 was filed and about half of the inactive calls have no number; reference of the scale not given here; AID 740; hit rate 0.07% among 96,000; inhibition, % at 50 µM; in the data active = inhibition above about 25%
# Numbers without * were called inactive; i = inactive.
no.	SMILES	H5N1 antiviral
1	Nc1c(N2CCN(c3ccccc3)CC2)c2ccccc2oc1=O	i
2	Cc1ccc(S(=O)(=O)/N=C/c2ccco2)cc1	0.1
3	CC(=O)c1cccc(NC(=O)c2cc(C)no2)c1	i
4	O=C(c1cnn2c(C(F)F)cc(C3CC3)nc12)N1CCc2ccccc2C1	0.3
5	c1ccc(C2(c3ccccc3)OCC(Cn3cncn3)O2)cc1 (configuration not stated)	i
6	O=C(c1ccccc1)c1cnc(Nc2ccc(Cl)c(Cl)c2)s1	i
7	Cc1ccc(OCC(=O)Nc2cccc(C)n2)c(C)c1	i
8	Cc1cc(OCC(=O)NCCCN(C)C)cc(C)c1Br	i
9	C=CCn1c(N)c(-c2nc3ccccc3n2C)sc1=S	0.8
10	N#C/C(=C\c1cc(Cl)ccc1O)C(=O)NC1CCCCC1	0.2
11	O=C(COc1cccc(Oc2ccccc2)c1)Nc1ccc(SC(F)F)cc1	i
12	Cc1c(C(=O)NCc2cccnc2)oc2c1C(=O)CC(C)(C)C2	2.0
13	O=C(Nc1ccccc1)N1CCN(c2nc3ccccc3s2)CC1	i
14	Cc1ccc(Cl)cc1N(CC(=O)NC1CCCCC1)S(C)(=O)=O	0.6
15	Cc1cc(C)c(NC(=O)CN2CCN3CCCC3C2)c(C)c1 (configuration not stated)	0.7
16	Cc1ccc(C2=N/C(=C\c3cccs3)C(=O)N2Nc2ccccc2)cc1	i
17	CCCCn1c(SCc2nc(N)nc(Nc3ccccc3C)n2)nc2ccccc2c1=O	i
18	CCC(=O)N1CCc2cc(S(=O)(=O)CCC(=O)NCc3ccc4c(c3)OCO4)ccc21	i
19	Cc1onc(COc2ccccc2O)c1Br	0.1
20	Cc1cc2oc(=O)cc(CSc3nc(N)cc(N)n3)c2cc1C	i
21	COc1ccc(C(=O)N2CCN(C3CCN(Cc4ccccc4)CC3)CC2)cc1OC	0.2
22	COc1ccc2c(c1)SC1=NCCS(=O)(=O)N12	1.2
23	C#CCSc1nnc(-c2c[nH]c3ccccc23)n1C	0.4
24	O=C(NCC1CCCC(CNC(=O)N2CCc3ccccc32)C1)N1CCc2ccccc21 (configuration not stated)	0.0
25	Cc1ccc(C(=O)CSc2cc(C)nc(SCC(=O)c3ccccc3)n2)cc1	1.9
26	Cc1c(N2C(=O)c3ccccc3C2=O)c(=O)n(-c2ccccc2)n1C	0.7
27	CCOc1ccc2nc(N3CCCCCC3)sc2c1	0.9
28	N#CCCN1CCN(S(=O)(=O)c2ccc(S(=O)(=O)NC3CCCC3)cc2)CC1	0.4
29	Cc1ccc(C)c(/C(O)=C2/C(=O)C(=O)N(CCN3CCOCC3)C2c2ccco2)c1 (configuration not stated)	0.1
30	CN(C)C(=O)c1ccc(NC(=O)c2cccnc2)cc1	i
31	CCOC(=O)N1CCN(c2c(NCCCN3CCCCCC3)c(=O)c2=O)CC1	0.6
32	CCOc1cc(C(=O)Nc2cc(C)ccn2)cc(OCC)c1OCC	i
33	O=c1n(Cc2ccccc2)c2cc(Cl)cnc2n1Cc1ccccc1	2.3
34	C/C(CC1(O)C(=O)N(Cc2ccccc2)c2ccccc21)=N\O (configuration not stated)	1.0
35	O=C(CN1CCN(c2ncccn2)CC1)Nc1ccccc1-n1cccc1	i
36	CCN1C(=O)C2C(c3ccc(O)c(OC)c3)NC(C)(C(=O)OC)C2C1=O (configuration not stated)	i
37	COc1cc(C(=O)OCC(=O)Nc2cc(C)on2)cc(OC)c1OC	i
38	CC(C)N(CCNC(=O)c1cn(C)c2ccc(S(=O)(=O)N(C)C)cc2c1=O)Cc1ccccc1	3.7
39	CCOc1ccc(-c2nnc(-c3ccco3)o2)cc1OCC	3.8
40	CSc1nc(-c2ccccc2)nn1C(=O)c1ccc(C)cc1	i
41	CCOC(=O)CCC(=O)NCc1ccc2[nH]c(C)cc2c1	i
42	O=S(=O)(Nc1nnc(-c2ccccc2)s1)c1ccc(Cl)cc1	1.3
43	COc1ccc(Cn2c(CCC(=O)Nc3ccccc3)nc3cccnc32)cc1	i
44	CCOc1ccc(-n2c(Cc3cc(=O)[nH]c(=O)[nH]3)nnc2SC(C)C)cc1	i
45	CC(=O)Nc1ccc(NC(=S)Nc2ccccc2)cc1	i
46	CC(C)c1ccc(NC(=O)CCNS(=O)(=O)c2cccc3nonc23)cc1	7.8
47	Cc1nnc(SCC(=O)NCc2ccc3c(c2)OCO3)s1	0.4
48	O=C(CSc1n[nH]c(-c2ccccc2Br)n1)NC(=O)NCc1ccco1	2.8
49	CC(CN(C)Cc1ccccc1)OC(=O)C1COc2ccccc2O1 (configuration not stated)	1.1
50	Cc1c(Cc2ccccc2)c(=O)oc2c(C)c(OCc3nn[nH]n3)ccc12	i
51	COc1cc(C(=O)Nc2cnc(NC(=O)C(C)C)cc2C)cc(OC)c1OC	i
52	COc1ccc(CCC(=O)Nc2nc3ccccc3[nH]2)cc1	0.3
53	CCCCOc1ccc(C2C(=O)N(C3CCCCC3)CC(=O)N2CC2CCCO2)cc1 (configuration not stated)	7.2
54	CC(N)C(=O)c1ccco1 (configuration not stated)	0.1
55	Cc1nc2ccc(NC3=NCCCCC3)cc2s1	0.5
56	CCN(CC)S(=O)(=O)c1cccc(-c2nnc(SC(C)C#N)n2Cc2ccccc2)c1 (configuration not stated)	1.4
57	CC1(C)Oc2ccc(C(=O)N3CCc4ccccc43)cc2N(CC(=O)N2CCCC2)C1=O	i
58	COC(=O)C1CCN(C(=O)COC(=O)CC(NC(C)=O)c2ccccc2)CC1 (configuration not stated)	i
59	O=C(COc1ccccc1)Nc1nnc(-c2ccccc2)o1	0.4
60	C(=N\n1cnnc1)/c1ccc(N2CCOCC2)s1	i

# The listing continues.
no.	SMILES	H5N1 antiviral
61	O=C(CN1C(=O)c2ccccc2C1=O)N1CCN(c2ccccc2)CC1	0.0
62	Cc1ccc(-n2c(C)cc(/C=N/NC(=O)c3ccc(CN4CCOCC4)cc3)c2C)cc1	1.2
63	COCc1nc(-c2ccc(-c3ccc(OC)cc3)nc2OC)no1	1.6
64	CC1=NN(c2ccc(C)c(C)c2)C(=O)C1C(c1cccc(O)c1)C1C(=O)N(c2ccc(C)c(C)c2)N=C1C (configuration not stated)	i
65	COc1nc(C)ccc1-c1noc(-c2ccncc2)n1	0.4
66	O=C(CN1CCc2ccccc2C1)Nc1ccccc1N1CCCCCC1	4.6
67	COc1ccc(-c2nnc(SCc3cccc(C)c3)n2N)cc1	i
68	N=c1sc2ccccc2n1-c1ccccc1	0.6
69	Cc1ccc(S(=O)(=O)CNC(=S)c2ccc3ccccc3c2)cc1	i
70	CN(C1CCCCC1)S(=O)(=O)c1ccc2c(c1)c(=O)c(C(=O)NCCN1CCCC1)cn2C	3.7
71	O=C(Nc1nc(-c2ccncc2)cs1)c1ccco1	2.8
72	CCOc1ccc(C(=O)Nc2cc(C)on2)cc1	0.5
73	O=C(Oc1ccc2ccccc2c1)c1ccco1	0.3
74	CCS(=O)(=O)CCSc1nc2ccccc2o1	i
75	O=C1NC2(CCCCCC2)N=C1c1ccc(F)cc1	0.1
76	Nc1nonc1C(=O)NCCNCc1c(OCc2ccccc2F)ccc2ccccc12	0.6
77	COc1cc2c(=O)n(-c3ccc(C)cc3)c(=O)n(CC(=O)c3ccc4c(c3)OCO4)c2cc1OC	0.9
78	COCCn1c(SCC(=O)Nc2nnc(C)s2)nnc1-c1c[nH]c2ccccc12	0.1
79	COc1ccc(C)cc1NC(=O)C1CC(=O)N(Cc2ccco2)C1 (configuration not stated)	0.2
80	CCOC(=O)c1c(C)[nH]c(C(=O)OCC(=O)N2CCc3ccccc32)c1C	0.5
81	CCOC(=O)C(C)Sc1nc(N)c(NC(=O)c2ccc(OC)c(OC)c2)c(=O)[nH]1 (configuration not stated)	0.3
82	O=C(Nc1nc2ccc(S(=O)(=O)N3CCCCC3)cc2s1)c1ccncc1	0.2
83	O=C(CSc1ccc2c(c1)OCCO2)NCc1ccco1	i
84	COc1ccccc1NS(=O)(=O)N(C)C	i

# In another format: 3 of the compounds above.
[15] Cc1cc(C)c(NC(=O)CN2CCN3CCCC3C2)c(C)c1 (configuration not stated)
  H5N1 antiviral: 0.7
[5] c1ccc(C2(c3ccccc3)OCC(Cn3cncn3)O2)cc1 (configuration not stated)
  H5N1 antiviral: i
[31] CCOC(=O)N1CCN(c2c(NCCCN3CCCCCC3)c(=O)c2=O)CC1
  H5N1 antiviral: 0.6

# (more compounds)
no.	SMILES	H5N1 antiviral
85	O=c1oc(-c2cc3ccccc3o2)nc2sc3c(c12)CCCC3	0.2
86	Cc1ccc(NC(=O)CS(=O)CC(=O)NC(C)CCc2ccco2)cc1Cl (configuration not stated)	i
87	O=C(NC(Nc1nc2ccccc2s1)(C(F)(F)F)C(F)(F)F)c1ccccc1	0.4
88	Cc1cc(Nc2nc3ccccc3[nH]c2=O)n(-c2ccccc2)n1	i
89	O=C(Nc1ccccc1)C12CC3CC(C1)CC(n1cnc([N+](=O)[O-])n1)(C3)C2	i
90	CC(C)C(=O)c1cn(CC(=O)N2CCCc3ccccc32)c2ccccc12	1.3
91	CCN(CC)c1ccc(C2C3CCCCC3(O)CCN2CC(=O)N2CCCCC2)cc1 (configuration not stated)	i
92	CCOc1ccccc1OCCCC(=O)N1CCN(S(=O)(=O)c2ccc(C)cc2)CC1	i
93	CCc1cc(C)c(O)c(CC)n1	i
94	COC(=O)c1[nH]c2cc(C)ccc2c1NC(=O)CN1CCN(c2ccccc2OC)CC1	2.7
95	Cc1cc(Br)ccc1OCC(=O)N1CCCCCC1	0.7
96	COc1ccc(OC)c(-c2cc(C(=O)N3CCCc4ccccc43)no2)c1	1.1
97	CC(=Nc1ccccc1)c1sc2ccccc2c1O	i
98	CCn1c(SCC(=O)Nc2nonc2C)nnc1-c1ccoc1C	0.5
99	CC1=NC(Nc2nc(C)c3ccccc3n2)=NC(C)(C)C1	i
100	Cc1ccc(NC(=S)NCCc2c[nH]c3ccccc23)cc1	i
101	O=[N+]([O-])c1ccc(N2CCN(CCO)CC2)cc1Sc1nc2ccccc2[nH]1	i
102	CC1(C)SC2c3ccccc3C(=O)N2[C@@H]1C(=O)NCCCN1CCOCC1 (some centres not stated)	1.4
103	CC(=O)c1ccc(NC(=O)Nc2ccc3c(c2)N(C)C(=O)CS3)cc1	i
104	Cn1c(=O)c2c(nc(SCC(=O)Nc3ccccc3N3CCCCC3)n2C)n(C)c1=O	0.2
105	O=S(=O)(c1ccc(Cl)cc1Br)N1CCCCC1	4.6
106	Cc1ccc(N2C(=O)C3ON(c4ccccc4)C(c4ccncc4)C3C2=O)cc1 (configuration not stated)	i
107	CC1CCN(CC(=O)c2c[nH]c3ccccc23)CC1	i
108	CC(C)C(NC(=O)C1CCCCC1)C(=O)Nc1ccc2c(c1)OCCO2 (configuration not stated)	i
109	CC1=C(C(=O)OCc2ccccc2)C(c2cccnc2)n2ncnc2N1 (configuration not stated)	2.6
110	CCCc1cc(=O)oc2cc(C)cc(OCc3nn[nH]n3)c12	i
111	COc1ccc(CCN2CC34C=CC(O3)C(C(=O)NCc3ccccc3Cl)C4C2=O)cc1OC (configuration not stated)	0.7
112	CC1CCN(C(=O)C(C)Sc2nc(-c3ccccc3)cc(C(F)(F)F)n2)CC1 (configuration not stated)	1.6
113	Cc1ccc(OCCC(=O)Nc2c(C)n(C)n(-c3ccccc3)c2=O)cc1	0.1
114	O=c1c2ccccc2ncn1Cc1ccco1	i
115	O=C(CN1CCCC1)N1c2ccccc2Sc2ccccc21	0.5
116	O=C(c1sc2ccccc2c1Cl)N(Cc1ccccc1Cl)C1CCS(=O)(=O)C1 (configuration not stated)	2.9
117	CCOc1ccc(CCNC(=O)CCc2nc(-c3ccc(OC)cc3)no2)cc1OCC	i
118	Cc1cccc(-n2ncc3c(N)ncnc32)c1	0.5
119	CC1=C(C(N)=O)C(c2cccc(OCc3ccccc3)c2)n2nnnc2N1 (configuration not stated)	i
120	Cc1cc(C)nc(N(C#N)CN2C(=O)c3ccccc3C2=O)n1	1.5

# Shown as labelled records: entries from further up
(70) CN(C1CCCCC1)S(=O)(=O)c1ccc2c(c1)c(=O)c(C(=O)NCCN1CCCC1)cn2C
  H5N1 antiviral = 3.7

(71) O=C(Nc1nc(-c2ccncc2)cs1)c1ccco1
  H5N1 antiviral = 2.8

(72) CCOc1ccc(C(=O)Nc2cc(C)on2)cc1
  H5N1 antiviral = 0.5

# (more compounds)
no.	SMILES	H5N1 antiviral
121	Clc1ccc(CCNc2nc3ccccc3s2)cc1	1.1
122	CCOc1ccc2c(=O)c(Oc3ccccc3)c(C)oc2c1	0.7
123	O=C(CCN1C(=O)C2C3C=CC(C3)C2C1=O)N1CCN(c2ccccc2Cl)CC1 (configuration not stated)	i
124	Cc1ccccc1C(=O)NC(C)c1ccc2c(c1)CCCC2 (configuration not stated)	i
125	O=C1C(Cl)=C(Nc2ccccc2O)C(=O)N1c1ccccc1	i
126	CC(=O)CC(=O)Nc1ccn(-c2ccccc2)n1	0.1
127	CCCC(c1nnnn1Cc1cccs1)N1CCN(C2CCCC2)CC1 (configuration not stated)	0.4
128	COc1ccc(Cl)cc1N1C(=O)C2CCCN2C1c1ccc(F)cc1 (configuration not stated)	i
129	O=C1CC(c2ccco2)CC(O)=C1C=NCCN1CCNCC1 (configuration not stated)	1.7
130	Cc1ccc(CCNC(=O)c2nnn(-c3cccc(C)c3)c2N)cc1	i
131	CC1(C)CC(N2CN(C3CCCCC3)CC2=O)CC(C)(C)N1	0.3
132	Cc1ccc(C2C(C=Nc3c(C)n(C)n(-c4ccccc4)c3=O)=C(c3ccccc3)Oc3ccccc32)cc1 (configuration not stated)	i
133	Cc1nc(C(=O)Nc2cc(Cl)ccc2Cl)nn1-c1cc(OC(C)C)c(Cl)cc1Cl	0.1
134	CCn1cc(Cl)c(C(=O)Nc2nc3ccccc3n2CCN2CCCCC2)n1	3.4
135	COc1ccc(Oc2nc3ccccc3nc2C(F)(F)F)cc1	i
136	COc1cc(CC(=O)Oc2ccc3c(c2)OCO3)cc(OC)c1OC	i
137	OC(CNc1ccccc1)COc1ccc(OCC(O)CNc2ccccc2)cc1 (configuration not stated)	i
138	CCC(C)(C(=O)Nc1ccc2c(c1)OCCO2)N(C(C)=O)c1ccc(C(N)=O)cc1 (configuration not stated)	i

# High-throughput results (PubChem BioAssay)

# Not all compounds are listed; the hit share may differ from the screen's.
